# Menin MLL FP FL – qHTS Assay for Inhibitors Targeting the Menin-MLL Interaction in MLL Related Leukemias: Competition With Fluorescein Labeled MLL-derived Peptide | Fluorescence polarization, fluorescein-MLL peptide displacement from menin | FP activity change, % at 61.4 µM | 290,000 tested, under 10 active | AID 1766, 2009; inconclusive = falling polarisation curve, or a change in total fluorescence; inactive = total fluorescence flat and polarisation flat or rising; no compound was filed as active; the % refers to the polarisation; negative = inhibition;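 further: % of control where 0% means no effect; inhibitors lower the polarisation; unlabelled MLL peptide was the positive control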
# Sfp inh – qHTS Assay for Inhibitors of Bacillus subtilis Sfp phosphopantetheinyl transferase (PPTase). 4'-phosphopantetheinyl transferase ffp (Bacillus subtilis), Q9F4F7. Biochemical Sfp PPTase activity, qHTS. Potency, µM, inactives show max response, negative = inhibition, hits mostly inhibitors. 3.5% of 310,000 active. AID 1490, 2009; active means well fitted inhibition curve with a large enough effect; inconclusive means small, poorly fitted or top-dose-only effect, or another doubt; inactive means no such curve, though single readings can be large or run the other way;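 further: the enzyme is Sfp with the accession as filed and its product quenches rhodamine fluorescence; potency means the concentration at half of the fitted maximal effect; 0% = enzyme reaction without inhibitor and -100% = no enzyme wells; top concentration of the series not given in the record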
#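 Sfp 15 nM + cpd, 15 min RT; start w/ rhodamine-CoA 5 uM, BHQ-2-YbbR 12.5 uM (final); 50 mM Hepes pH 7.6, 10 mM MgCl2, 0.01% NP-40, 0.01% BSA; read 525/598 nm at 0 and 30 min.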
# ClpP mod – qHTS Assay for Activators of ClpP | Potency, µM (series often up to 57.5 µM), for the others: at the top dose activity change, negative = active | ATP-dependent Clp protease proteolytic subunit (Bacillus subtilis (strain 168)), P80244 | 1.9% of 340,000 active | purified B. subtilis ClpP, FRET peptide cleavage, 20 min | AID 651965, 2013; active = well fitted falling curve with a large enough effect; inconclusive = small, poorly fitted or top-dose-only effect; inactive = no such curve, though single readings can be large or run the other way; further: potency means the concentration at half of the fitted maximal effect; the source files actives as falling curves though it sought activators and does not explain the sign; nearly all actives have a fitted effect of over 65% in size; many hits overshoot -100%
# Target sequence (P80244 whole entry, looked up): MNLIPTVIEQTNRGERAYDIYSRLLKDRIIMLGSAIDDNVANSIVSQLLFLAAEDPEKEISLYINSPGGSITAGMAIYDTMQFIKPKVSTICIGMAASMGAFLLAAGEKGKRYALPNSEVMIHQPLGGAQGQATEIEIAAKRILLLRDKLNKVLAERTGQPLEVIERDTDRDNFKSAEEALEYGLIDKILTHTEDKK
#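 Buffer: 100 mM Tris/HCl pH8, 100 mM KCl, 0.05% low protease BSA, 2.5% glycerol, 0.01% Tween-20. ClpP 10 microg/mL final; 20 min RT; delta FRET normalized to ADEP and DMSO controls.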
# PINK1 expr mod – A Quantitative High throughput Screen to Identify Chemical Modulators of PINK1 Expression. PINK1 immunofluorescence, high-content cytometry, 24 h. Potency, µM (highest dose often 76.6 µM), for inactives: at the top dose activation (PINK1 increase), most hits filed as activators. 0.2% of 410,000 active. AID 624263, 2012; active = well fitted activation curve with a large enough effect; inconclusive = small, poorly fitted or top-dose-only effect; inactive = flat fitted curve, though single readings scatter; cell line not stated here;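 further: potency means the concentration at half of the fitted maximal effect; % of control where 0% means no effect; nearly all actives have a fitted effect of over 65% in size; a mitochondrial uncoupler was the plate control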
#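 Fluorescence from anti-PINK1 antibody, together with nuclear and cell stains, was scanned on a laser-scanning cytometer. Before staining, stable-line cells were incubated 24 hours with compounds at 5 concentrations; primary antibody 12 h at 10 degrees C.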
# TRPV1 potentiator – HTS Assay for Compounds that Act as Potentiators of the Vanilloid Receptor 1; Transient receptor potential cation channel subfamily V member 1 (Homo sapiens), Q8NER1; TRPV1-expressing cells, Fluo-8 calcium influx, capsaicin EC20 potentiation; host cell line not named in the record; control for the full effect not named in the record; potentiation, % at 8.33 µM; 0.02% of 320,000 active; active means potentiation above 80%; inconclusive means 30% to 80%; inactive means below 30%; further: 0% is about no effect
#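 TRPV1-expressing cells were cultured overnight at 35.5C and loaded with Fluo-8 calcium dye for 40 to 90 min at room temperature. After a 10 s baseline, compound was added and calcium influx was read kinetically for 3 min (ex 480/em 520 nm).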
# TRPML1 inh – qHTS for Inhibitors of the Human Mucolipin Transient Receptor Potential 1 (TRPML1) | 0.02% of 390,000 active | TRPML1-inducible cells, Ca2+ dye fluorescence, FDSS; active compounds read low; inhibition of EC80 agonist-evoked calcium signal | Mucolipin-1 (Homo sapiens), Q9GZU1 | activity change, negative = inhibition, % (test concentration not listed) | AID 624415, 2012; in the data active means activity change below about -50%; inconclusive means about -30% to -50%; inactive means above about -30%;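 further: stimulus is agonist 54-4 at its EC80 concentration; on the % scale 0 is the no-effect control and ±100 the full control effect; compound concentration not given in the record; the text of the record puts the active cut at -80%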
# Target sequence (Q9GZU1 whole entry, looked up): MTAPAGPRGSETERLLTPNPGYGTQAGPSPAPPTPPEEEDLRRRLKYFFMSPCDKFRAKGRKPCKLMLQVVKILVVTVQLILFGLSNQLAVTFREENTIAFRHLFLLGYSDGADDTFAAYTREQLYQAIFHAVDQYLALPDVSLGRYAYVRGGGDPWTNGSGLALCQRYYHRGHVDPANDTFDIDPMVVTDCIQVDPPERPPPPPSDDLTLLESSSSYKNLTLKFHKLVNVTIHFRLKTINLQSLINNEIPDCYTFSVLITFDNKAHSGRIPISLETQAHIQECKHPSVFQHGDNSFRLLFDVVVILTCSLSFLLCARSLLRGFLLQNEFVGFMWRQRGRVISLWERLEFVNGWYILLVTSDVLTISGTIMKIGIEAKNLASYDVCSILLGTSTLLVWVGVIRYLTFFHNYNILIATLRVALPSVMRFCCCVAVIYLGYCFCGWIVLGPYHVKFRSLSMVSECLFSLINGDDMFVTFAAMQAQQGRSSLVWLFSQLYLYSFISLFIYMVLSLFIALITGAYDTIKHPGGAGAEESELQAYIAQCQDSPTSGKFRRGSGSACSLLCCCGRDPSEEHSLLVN
#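 Calcium fluorescence in TRPML1-DL cells induced overnight with Tet: a 110 s read after compound pin addition, then a 110 s antagonist read after challenge with 54-4 at 4 uM final (EC80).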
# TRPML1 ag – qHTS for Agonists of the Human Mucolipin Transient Receptor Potential 1 (TRPML1) | TRPML1-expressing cells, Ca2+ dye fluorescence, FDSS; host cell line not named in the record; reference of the full effect not given here | 0.12% of 410,000 active | activation, % (no concentration beside the values); in the data active = activation above about 50%; inconclusive = about 30% to 50%; inactive = below about 30%; further: 0% is about no effect; the text of the record puts the active cut at 80%
#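 Tetracycline-induced TRPML1-DL cells are seeded and incubated overnight before loading with a no-wash Ca2+ dye and quencher. Agonist activity is taken from the 110 s fluorescence read following compound pin-transfer on an FDSS, before EC80 54-4 challenge.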
# * marks the source's active call; other numbers are inactive results; ? = inconclusive; nt = no result given; [ ] = dose if it differs, or a comment.
# Values in the order – Menin MLL FP FL	Sfp inh	ClpP mod	PINK1 expr mod	TRPV1 potentiator	TRPML1 inh	TRPML1 ag
CCCn1c2ccccc2c2nnc(SCC(=O)Nc3cccc(C(C)=O)c3)nc21
    nt	nt	0.4%	-0.1%	nt	-2.4	2.1
CCOCCCNC(=O)CN1C(=O)CCn2nc(-c3cccn3C)cc21
    nt	nt	0.4%	1.6%	nt	-2.2	0.8
O=C(c1cc(S(=O)(=O)N2CCOCC2)ccc1Cl)N1CCC(Cc2ccccc2)CC1
    nt	nt	1.9%	1.2%	5.9	-7.8	-0.1
COc1ccc(S(=O)(=O)N2CCOC2CNC(=O)C(=O)NCc2ccccn2)cc1 (configuration not stated)
    nt	nt	-2.0%	0.2%	nt	9.1	-0.3
N#CCCN1C(=O)C2(OCCO2)c2ccccc21
    4.4	4.0%	-1.3%	7.6%	10.9	6.8	-0.3
CCOC(=O)[C@@H]1[C@H]2COc3cc(OC)ccc3[C@@H]2N2C(=O)N(c3cccc(F)c3)C(=O)[C@@]12C
    6.6	6.5%	0.8%	0.3%	-16.5	-3.6	-0.1
O=C(OCC(=O)N1CCOCC1)c1cncc(Br)c1
    nt	nt	0.4%	1.6%	nt	4.9	0.0
CC(=O)c1cccc(NC(=O)C2CCCN2S(=O)(=O)c2cccc3nsnc23)c1 (configuration not stated)
    1.5	24.6%	-0.7%	-1.4%	nt	4.9	-0.3
COCCn1nnnc1CN(Cc1ccco1)Cc1cc2cc3c(cc2[nH]c1=O)OCO3
    0.5	-5.3%	28.2µM*	-2.1%[38.3 µM]	0.2	2.4	0.5
Nc1c(C(=O)NC2CC2)c2nc3ccccc3nc2n1-c1ccc2c(c1)OCO2
    0.4	-2.3%	31.6µM*	8.8%	-11.4	-1.7	-0.7
O=C(COC(=O)c1ccc(O)cc1)Nc1ccc(S(=O)(=O)N2CCCC2)cc1
    nt	nt	-3.2%	0.0%	nt	2.2	-0.3
CC1CC(=O)Nc2ccccc2N1C(=O)COc1ccccc1C(N)=O (configuration not stated)
    nt	nt	-3.8%	2.2%	nt	2.4	0.1
O=C(N/N=C/c1ccco1)C12CC3CC(CC(C3)C1)C2
    5.4	?	nt	0.3%	-16.2	6.2	1.5
Cc1ccc(-n2c(-c3ccccc3)c[n+]3c2CCc2ccccc2-3)c(C)c1
    2.1	22.1%	nt	?	-4.0	49.8	1.3
COc1ccc(OCCN2CCC(C(=O)NC(c3ccc(OC)cc3)c3ccccn3)CC2)cc1 (configuration not stated)
    nt	nt	0.2%	-0.1%	nt	nt	-0.4
Fc1cc(Br)ccc1COc1ccc(-c2nnco2)cc1
    nt	10.4%	0.1%	1.1%	-2.9	16.3	1.4
Cc1ccc(NC(=O)c2cc(N3CCOCC3)nc3ccccc23)cc1
    2.7	-5.6%	-12.8%	8.4%[38.3 µM]	-5.2	8.7	-0.1
O=C(Nc1ccc(S(=O)(=O)Nc2nccs2)cc1)c1cc(-c2ccncc2)nc2ccccc12
    11.1	-2.8%	-2.2%	1.6%	-5.5	nt	nt
O=C(NCCSc1ccccn1)c1ccc(Cl)cc1Cl
    -2.1	11.1%	-0.8%	1.9%	-13.5	-2.2	-1.2
CCC(=O)Nc1c(C#N)c2nc3ccccc3nc2n1C1CCCCC1
    0.4	6.9%	-18.9%	-2.4%	7.2	-4.8	2.9
O=C(NC(=S)NCCc1ccccn1)c1ccccc1
    0.3	9.8%	nt	3.1%	-13.0	26.3	0.9
COc1ccc(-c2ccc(C#N)c(SCC(=O)NCCc3ccccc3)n2)cc1OC
    2.9	-8.9%	4.1%	9.2%	-6.2	-0.8	0.7
CCn1ccnc1C(O)c1cccc(OC)c1 (configuration not stated)
    -1.0	6.8%	-1.2%	-2.1%	15.6	-15.1	0.7
O=C(NCc1cccnc1)c1cc([N+](=O)[O-])ccc1N1CCOCC1
    -0.7	12.9%	nt	-0.1%	0.4	-18.1	0.5
O=C(Nc1ccccc1OCc1ccccc1)c1ccccc1Br
    -6.8	-23.6%	-2.3%	0.8%	-0.2	30.6	0.1
Fc1ccccc1Cc1noc(CN2CCC(OCc3cccnc3)CC2)n1
    -2.0	35.5µM*	nt	0.5%	8.4	-29.6	0.2
COc1ccc(C(=O)/C=C2/C(=O)Nc3ccccc32)c(OC)c1
    6.5	56.2µM*	-17.4%	-2.8%	2.5	18.4	3.0
CC(C)(C)NC(=O)c1cccc(NC(=O)c2ccc(NC(=O)c3ccco3)cc2)c1
    11.0	-0.7%	-2.5%	nt	7.6	75.1	-0.3
COc1ccc(C(=O)NCc2ccc3c(c2)CCN3C(=O)c2ccccc2)cc1
    nt	nt	-6.1%	1.7%	nt	6.9	0.4
O=C(COC(=O)C1=COCCO1)Nc1cc(Cl)c(Cl)cc1Cl
    nt	nt	-1.8%	-0.2%	nt	-1.1	1.8

# (cont.)
# Values in the order – Menin MLL FP FL	Sfp inh	ClpP mod	PINK1 expr mod	TRPV1 potentiator	TRPML1 inh	TRPML1 ag
CCOC(=O)c1ccc(COC(=O)CCc2nc3ccccc3[nH]c2=O)o1
    4.6	1.2%	31.6µM*	-0.8%	15.4	-3.6	0.7
CCCN1CN=C(NS(=O)(=O)c2ccc(C)cc2)NC1
    3.0	8.6%	nt	0.9%	-6.5	23.3	2.1
CC(C)Cc1nnc(NC(=O)CSc2nc(O)c(Cc3ccccc3)c(=O)[nH]2)s1
    -0.9	19.9%	nt	2.1%	6.2	8.4	-0.1
CCOc1ccccc1CNC(=O)C1CCN(c2nnc(-n3c(C)ccc3C)s2)CC1
    nt	nt	7.9%	0.6%	nt	4.8	0.7
Cc1cc2c(cc1C)NC1(C(=O)Nc3ccccc31)C1=C(CC(C)(C)CC1=O)N2 (configuration not stated)
    -0.1	-6.9%	?	-1.4%	2.3	-5.6	0.0
COc1ccc(N2CCN(C(=O)CN3C(=O)C4CC=CCC4C3=O)CC2)cc1 (configuration not stated)
    0.5	-0.6%	-11.9%	-2.2%	0.4	-2.3	2.5
COc1ccc(C(=O)NC(=S)N(C)C2CCCCC2)cc1
    nt	1.2%	3.0%	1.9%	-11.0	1.3	0.0
CCOc1ccc(CCN2C(=S)N([C@@H](CC(C)C)CN3CCCC3CN3C(=S)NC[C@@H]3Cc3ccc(O)cc3)C[C@@H]2Cc2ccccc2)cc1 (some centres not stated)
    nt	nt	1.6%	4.5%	nt	-3.5	0.7
Cc1nn(-c2ccc(F)cc2)c(C)c1/C=C/C(=O)N1CCNC(=O)C1
    -1.1	22.5%	0.8%	2.7%	8.2	?	0.7
Cc1ccccc1NC(=O)/C(C#N)=C/c1ccc[nH]1
    -3.7	12.8%	-0.8%	0.8%	3.2	-5.0	-0.3
CCC(C)Nc1nc(Cl)nc(N(C#N)CN2C(=O)c3ccccc3S2(=O)=O)n1 (configuration not stated)
    1.3	2.4%	nt	5.9%	-6.7	-4.0	6.4
O=C(Nc1ccc2nc(-c3ccc(Br)o3)[nH]c2c1)c1ccco1
    3.9	?	-5.2%	-0.3%	7.1	-8.0	-0.7
CC(=O)N1CCc2cc(Br)cc(S(=O)(=O)CCC(=O)Nc3c(C)n(C)n(-c4ccccc4)c3=O)c21
    7.6	15.3%	nt	0.9%	4.2	10.6	-0.9
COc1cccc(NC(=O)N2CCC(C(=O)Nc3ccc(C)cc3C)CC2)c1
    0.8	13.6%	-1.9%	-12.2%[38.3 µM]	0.0	-8.5	-0.4
CCC(OC(=O)c1ccco1)C(=O)NCc1ccc2c(c1)OCO2 (configuration not stated)
    3.9	9.9%	nt	-3.0%	-0.4	43.5	0.4
CC(=O)Nc1cccc(C(=O)N/N=C/c2cccc(C)n2)c1
    -13.0	?	nt	-1.4%	-2.0	30.1	0.0
COc1ccc(C(=O)N2C(=S)NC(=O)/C2=C\c2ccc(C)cc2)cc1
    ?	50.1µM*	-3.7%	-0.2%	-3.4	8.7	1.4
COc1ccc(-c2noc(N3CCCC(C(=O)Nc4ccc(F)cc4F)C3)n2)cc1 (configuration not stated)
    -5.1	-28.3%	1.2%	2.2%	-16.5	-3.3	-0.4
CCOC(=O)C1=CCN(S(=O)(=O)c2ccc(F)cc2)C1c1cccc(F)c1 (configuration not stated)
    nt	nt	-2.4%	3.1%	nt	nt	0.3
COc1ccc(C)c2sc(N(Cc3cccnc3)C(=O)CCc3ccccc3)nc12
    nt	nt	-4.1%	0.0%	nt	1.4	2.2
CCOC(=O)c1ccc(NC(=O)COc2cccc3c(=O)n(C)ccc23)cc1
    nt	nt	-10.5%	-0.3%	nt	7.6	1.7
COc1cc(OC)cc(C(=O)Nn2cc(C(=O)Nc3c(F)cccc3F)c3ccccc3c2=O)c1
    5.1	22.1%	-3.5%	0.2%	13.5	1.9	0.2
O=C(/C=C/Nc1ccc(Br)cn1)c1cccc(OC(F)F)c1
    nt	nt	-2.6%	15.8%	-14.6	8.2	-0.2
COc1cccc(N2CCN(C(=O)c3nc4nc(C)cc(C)n4n3)CC2)c1
    3.2	7.8%	nt	-1.6%	-8.9	-12.7	-0.5
C[C@@H]1CN([C@H](C)CO)C(=O)CCCn2cc(nn2)CO[C@H]1CN(C)C(=O)Nc1ccccc1F
    nt	nt	0.6%	1.3%	nt	-7.9	0.0
O=C(Nc1cccc2ccccc12)NC1CCCc2ccccc21 (configuration not stated)
    1.6	13.8%	?	-0.5%	0.2	-11.7	-0.6
COCCn1c(=O)[nH]c2cc(C(=O)N3CCN(c4cc(C)ccc4C)CC3)ccc2c1=O
    -2.6	7.4%	nt	1.3%	0.4	-9.7	-0.5

# Source: PubChem (National Center for Advancing Translational Sciences (NCATS))
